# Screening data: PubChem, several laboratories
# CBX7 inh: inhibitors of human CBX7 binding to H3K27me3 peptide; O95931; AlphaScreen His6-CBX7 / biotin-H3K27me3 peptide binding; stronger effect = lower value; normalised signal (fraction of DMSO) (no concentration beside the values); 66,000 tested, 1.1% active; in the data active = normalised signal below about 0.5;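 also: 100 nL library stock added to about 20 µL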
# Target sequence (O95931 whole entry, looked up): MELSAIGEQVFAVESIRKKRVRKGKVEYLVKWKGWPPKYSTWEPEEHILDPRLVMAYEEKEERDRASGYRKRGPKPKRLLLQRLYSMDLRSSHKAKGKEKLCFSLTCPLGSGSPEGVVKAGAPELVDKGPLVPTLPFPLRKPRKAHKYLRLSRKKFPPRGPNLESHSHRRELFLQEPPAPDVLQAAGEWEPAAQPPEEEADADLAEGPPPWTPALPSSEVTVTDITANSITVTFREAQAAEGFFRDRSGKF
# CBX7 inh z-score: also measured in CBX7 inh; calls as there; z-score; measured here: z-score of CBX7 signal; some inactives read as strong as hits; reference of the scale not given here;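 same signal on another scale; lower means less binding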
# An asterisk follows results filed as active. A portion of the library, so the mix of outcomes need not match the whole.
# Start of the listing, in advance:
Molecule	CBX7 inh	CBX7 inh z-score
COc1ccccc1C(CCN(Cc1ccc(N(C)C)cc1)C(C)=O)C1CCOC(C)(C)C1 (centres undefined)	0.78	-5.2
Cc1[nH]c2ccc(-c3nnc(SCC(=O)O)n3-c3ccc(Br)cc3)cc2c1C	1	1.1
CC(O)(C#CC(O)(c1ccc(F)cc1)c1ccc(F)cc1)C1CC1 (centres undefined)	1	0.57
O=C(Nc1nc(-c2ccc3ccccc3c2)cs1)c1cccs1	1	-0.065
COc1ccc(C)cc1NC(=O)c1cc2c(s1)-c1c(C)cccc1OC2	1.5	17

# Main list, from the first entry:
Molecule	CBX7 inh	CBX7 inh z-score
COc1ccccc1C(CCN(Cc1ccc(N(C)C)cc1)C(C)=O)C1CCOC(C)(C)C1 (centres undefined)	0.78	-5.2
Cc1[nH]c2ccc(-c3nnc(SCC(=O)O)n3-c3ccc(Br)cc3)cc2c1C	1	1.1
CC(O)(C#CC(O)(c1ccc(F)cc1)c1ccc(F)cc1)C1CC1 (centres undefined)	1	0.57
O=C(Nc1nc(-c2ccc3ccccc3c2)cs1)c1cccs1	1	-0.065
COc1ccc(C)cc1NC(=O)c1cc2c(s1)-c1c(C)cccc1OC2	1.5	17
Cn1c(SCC(=O)NCC2CCCO2)nnc1-c1c[nH]c2ccccc12 (centres undefined)	1	0.24
CCC(C(=O)NCCCN1CCOCC1)n1ncc2ccccc21 (centres undefined)	0.98	-0.44
Cc1cccc(NC(=O)CN(C)S(=O)(=O)c2ccc3nc(C)sc3c2)c1	1.1	0.31
O=C(CSc1nnc2c(n1)[nH]c1ccccc12)N(CCO)CCO	1.2	1.3
O=C(NCCN1CCOCC1)c1ccc2c(c1)N(Cc1cccc(F)c1)C(=O)c1ccccc1S2	0.98	-0.57

Molecule	CBX7 inh	CBX7 inh z-score
Cc1ccc2c(c1)-c1c(cnn1CC(=O)Nc1ccc(F)c(Cl)c1)CO2	0.98	-0.47
CCS(=O)(=O)N1CCC(C(=O)NCc2ccc3c(c2)OCO3)CC1	1.1	1
Cc1nnc(NC(=O)c2c(-c3ccccc3Cl)noc2C)s1	1.1	0.53
CCCNC(=O)N1CCN(c2nc3ccccc3s2)CC1	1.1	4.1
CCN(CC)S(=O)(=O)c1ccc2c(c1)N(CC(=O)NC1CCC(C)CC1)C(=O)CO2 (centres undefined)	1.1	1.5
O=C(CCN1C(=O)COc2ccccc21)NCc1ccccc1Cl	1.1	2.4
O=C(COc1ccc(Cl)cc1)NCc1nnc(SCC(=O)Nc2ccc3c(c2)OCCO3)o1	1.1	1.4
CCOc1ccc(-n2cc(C(=O)NCc3ccc(F)cc3)c3cc(OC)c(OC)cc3c2=O)cc1	1	0.087
O=C(CSc1ncnc2sc3c(c12)CCC3)Nc1cc(C(F)(F)F)ccc1Cl	1.1	0.14
COc1ccc(Cl)cc1Nc1nc(-c2cccnc2)cs1	1	0.35

Molecule	CBX7 inh	CBX7 inh z-score
Cc1nc(Nc2ccccc2F)c2c3c(sc2n1)CCCC3	0.88	-0.16
Cc1noc(C)c1C(=O)N1CCC(C(O)(c2ccccc2)c2ccccc2)CC1	1	0.36
COc1ccc(-c2nc3cc(NC(=O)COc4ccc(Br)cc4)ccc3o2)cc1	1	0.13
COc1ccc(-c2nc3cc(NC(=O)c4ccc(C)cc4)ccc3o2)cc1Cl	1	0.033
Cc1ccc(Cl)cc1NC(=O)CN(c1ccc(C(C)C)cc1)S(=O)(=O)c1c(C)nn(C)c1C	0.95	-0.7
O=C(C1CC1)N1CCc2cc(S(=O)(=O)N3CCN(Cc4ccccc4)CC3)ccc21	0.93	-2
COC(=O)c1ccccc1NC(=O)CCc1c(C)nc2c(-c3ccccc3)c(C)nn2c1C	1.1	3.6
O=C(O)c1ccc(Nc2nc(-c3ccccc3)c(Oc3ccc(Cl)cc3)s2)cc1	0.89	-2.6
COc1ccc(Nc2cc(C(=O)O)c3ccccc3n2)c(OC)c1	0.99	-0.12
CCOc1ccc(NC(=O)C2CCCN(S(=O)(=O)c3cccc4cccnc34)C2)cc1 (centres undefined)	1	-0.018

Molecule	CBX7 inh	CBX7 inh z-score
Cc1ccc(C)c(CN2C(=O)c3ccccc3S(=O)c3ccc(C(=O)NCCN4CCCC4)cc32)c1 (centres undefined)	0.93	-1.1
CCCN(CCC)CCNC(=O)Cn1ncc2c1-c1ccccc1OC2	1	1.2
O=C(CCc1nc(-c2ccccc2F)no1)NCc1ccc(F)cc1	0.84	-2.4
CC1CCCCC1NC(=O)CN1C(=O)COc2ccc(C(C)(C)C)cc21 (centres undefined)	0.91	-1.7
CCCCCCCNC(=O)Cn1nc(-c2ccccc2)ccc1=O	1.2	5.3
O=S(=O)(NCc1ccccc1)c1cccc(S(=O)(=O)c2ccc(Br)cc2)c1	1.1	2.7
CCCOc1ccc(-c2nc(N3CCCCC3)c3ccccc3n2)cc1	1.2	0.26
COc1ccccc1-c1cc(C(F)(F)F)nc(N2CCN(c3ccccc3OC)CC2)n1	1.2	10
CCn1c(C2CC(=O)N(c3ccc(C)cc3C)C2)nc2ccccc21 (centres undefined)	1.1	0.81
CCOc1ccc2nc(C)cc(Nc3ccc(OC)c(OC)c3)c2c1	0.82	-2.6

Molecule	CBX7 inh	CBX7 inh z-score
O=c1oc2c(Cl)cc(Cl)cc2cc1-c1csc(Nc2cccc(F)c2)n1	1.1	0.9
Cc1ccccc1-c1nc(CN2CCCC(C(=O)NC3CCC(C)CC3)C2)c(C)o1 (centres undefined)	0.95	-0.065
Cc1cccc(CCNC(=O)C2CCC(CNS(=O)(=O)c3cccc4cccnc34)CC2)c1 (centres undefined)	0.94	-2.5
Cc1ccccc1Oc1nnc(-c2cccs2)c2ccccc12	0.74	-0.29
COc1ccc(CNc2sc3c(c2C(=O)Nc2ccc(OC)cc2OC)CCC3)cc1	0.83	-3.3
CC(C)c1ccc(N(C)S(=O)(=O)c2ccc3[nH]cc(C(=O)N4CCCCCC4)c(=O)c3c2)cc1	1	0.085
CCc1nnc(NS(=O)(=O)c2ccc(NC(=O)c3ccc(C(=O)OC)cc3)cc2)s1	1	0.73
O=C(NCc1cccnc1)c1nn2c(c1Cl)NC(c1cccs1)CC2C(F)(F)F (centres undefined)	1.1	0.71
Cc1cc(N2C(=O)c3ccc(C(=O)N4CCCCC4C)cc3C2=O)no1 (centres undefined)	1	0.5
O=C(C1=CCN(S(=O)(=O)c2ccccc2)CC1)N1CCc2ccccc21	1	0.52

Molecule	CBX7 inh	CBX7 inh z-score
COc1ccccc1NC(=O)CSc1oc(-c2ccc(F)cc2)nc1S(=O)(=O)c1ccccc1	0.96	-0.35
COc1ccc(-n2cnc3cc(C(=O)NCC4CCCO4)ccc32)cc1 (centres undefined)	0.97	-0.33
CCC(Oc1ccccc1F)C(=O)Nc1c(C(=O)c2ccccc2)oc2ccccc12 (centres undefined)	1.5	1.8
Cc1ccc(-c2nc3cccc(O)c3nc2-c2ccc(C)cc2)cc1	0.83	-1.1
Cc1nnc(Nc2ccc(OCC(N)=O)cc2)c2ccccc12	1	0.13
CCCN(CCC)S(=O)(=O)c1ccc(C(=O)Nc2nnc(-c3cccs3)o2)cc1	0.93	-0.66
COc1ccc(N2C(=O)C(CC(=O)Nc3ccccc3)N(CCC3=CCCCC3)C2=O)cc1 (centres undefined)	0.98	-0.67
COC(=O)c1cc2sc(Cl)cc2n1Cc1nc(-c2ccc(OC)c(OC)c2)oc1C	0.99	-0.44
O=C(Cn1nc(Cc2cccnc2)c2ccccc2c1=O)NCCc1ccc(Cl)cc1	0.95	-0.07
COc1ccc(NS(=O)(=O)c2ccc3[nH]c(=O)c(=O)[nH]c3c2)cc1Cl	1	0.41

# A second format for 3 compounds above:
COc1ccccc1NC(=O)CSc1oc(-c2ccc(F)cc2)nc1S(=O)(=O)c1ccccc1
  CBX7 inh = 0.96
  CBX7 inh z-score = -0.35
COc1ccc(-n2cnc3cc(C(=O)NCC4CCCO4)ccc32)cc1 (centres undefined)
  CBX7 inh = 0.97
  CBX7 inh z-score = -0.33
CCC(Oc1ccccc1F)C(=O)Nc1c(C(=O)c2ccccc2)oc2ccccc12 (centres undefined)
  CBX7 inh = 1.5
  CBX7 inh z-score = 1.8

# Additional records follow:
Molecule	CBX7 inh	CBX7 inh z-score
Cc1cc2c(cc1C)NC(CC(=O)Nc1ccc(N3CCOCC3)cc1)C(=O)N2 (centres undefined)	1	0.041
CCCOc1ccc(N2C(=O)CC(NCCc3ccccc3F)C2=O)cc1 (centres undefined)	1.1	2.3
COc1ccc(OC)c(CCNC(=O)c2ccc3c(c2)N(Cc2ccc(Cl)cc2)CCS3)c1	0.97	-0.39
COc1cc(Nc2nc(C)nc3sc(C)cc23)cc(OC)c1OC	0.99	-0.53
Cc1cc(N2CCN(C)CC2)n2nc(C)c(-c3ccc(Cl)cc3)c2n1	1.1	6.2
Fc1ccc(Cn2c(-c3cscn3)nc3ccccc32)c(Cl)c1	1	0.41
COc1ccc(CCNc2nc3ccccc3nc2NS(=O)(=O)c2ccc(C)cc2)cc1OC	0.99	-0.37
COc1cc(NS(=O)(=O)c2ccc3c(c2)NC(=O)CC(=O)N3)cc(OC)c1	1.1	2.3
Cc1ccc(CNC(=O)CSc2nc(NC3CCCCC3)c3ccccc3n2)cc1	0.99	-0.59
CCOC(=O)c1ccccc1NC(=O)c1cn(CC(C)C)c(=O)c2cc(OC)c(OC)cc12	1.1	1.2

Molecule	CBX7 inh	CBX7 inh z-score
COc1ccc(C2C(=O)N(C3CCC(C)CC3)CC(=O)N2Cc2ccc(F)cc2)cc1OC (centres undefined)	0.94	-0.18
CCOc1ccccc1NC(=O)c1cnc(Nc2ccc(OC)cc2)c2ccccc12	0.99	-0.11
Cc1ccc(C(=O)Nc2sc3c(c2C(=O)N2CCCCCC2)CCCC3)cc1	1	0.29
O=C(NCCN=C1NS(=O)(=O)c2ccccc21)c1ccc(F)cc1	1.2	6
COc1ccc(OCCSc2nc3ccccc3[nH]2)cc1	1.2	2.1
OCCNc1nn2c(C(F)(F)F)nnc2c2ccccc12	0.97	-0.82
COc1ccc(-c2noc(CCC(=O)Nc3ccc4c(c3)OCCO4)n2)cc1	1	0.037
Cc1ccnc(NS(=O)(=O)c2ccc(NC(=O)c3ccccc3)cc2)n1	1.1	0.69
Cc1cc(OCc2nc(-c3cccnc3)no2)cc(C)c1Br	1.1	2.7
O=C(NCCc1ccccc1)C1CC(=O)N(CCc2ccccc2)C1 (centres undefined)	1.1	1.6

Molecule	CBX7 inh	CBX7 inh z-score
c1csc(-c2nnc(N3CCOCC3)c3ccccc23)c1	0.98	-0.35
O=[N+]([O-])c1cc(-c2nnc(Nc3ccc(O)cc3)c3ccccc23)ccc1N1CCOCC1	0.65	-1.6
CCn1c(NCc2cc(Br)ccc2NS(=O)(=O)c2ccc(C)cc2)nc2ccccc21	0.98	-0.28
O=C1CC(CCC(=O)NC2CCCCC2)c2ccccc2N1 (centres undefined)	1	0.26
Cc1cccc(-c2nnc(NC(=O)c3c(-c4ccccc4Cl)noc3C)s2)c1	1.2	3.1
O=S(=O)(CC(O)COc1ccccc1)c1ccccn1 (centres undefined)	0.9	-1.8
O=C(C1CCC(Cn2c(=O)[nH]c3ccccc3c2=O)CC1)N1CCN(c2cccc(Cl)c2)CC1 (centres undefined)	0.81	-3.8
Cc1ccc(-c2nc(S(=O)(=O)c3ccc(C)cc3)c(SCC(=O)c3ccccc3)o2)cc1	0.89	-0.94
CCCCNC(=O)c1ccc2c(c1)N(Cc1cccc(C)c1)C(=O)c1ccccc1S2	1	-0.00013
COc1ccccc1CNC(=O)CC1Oc2ccc(C)cc2NC1=O (centres undefined)	1	0.12

Molecule	CBX7 inh	CBX7 inh z-score
Clc1cccc(-n2nnnc2C(c2ccccc2Cl)N2CCOCC2)c1 (centres undefined)	1.1	0.33
Cc1ccc(C)c(Cn2c(CCNC(=O)c3ccccc3)nc3ccccc32)c1	0.92	-0.32
COc1ccc(C(=O)Cn2c(NCCCO)nc3ccccc32)cc1	0.83	-1.8
CC(NC(=O)Cc1cccs1)C(c1cccs1)N1CCN(c2ccccc2F)CC1 (centres undefined)	0.7	-3.2
COc1ccc(-c2nc(-c3ccccc3)c(-c3ccccc3)[nH]2)c(OC)c1	0.37*	-16*
CCC1=Nc2cc(C(=O)NCc3ccc(F)cc3)ccc2Sc2ccc(C)cc21	0.92	-4
CCN(C(=O)c1ccc2c(=O)n3c(nc2c1)CCCCC3)c1ccc(C)c(C)c1	0.9	-1.6
COc1cccc(CNC(=O)C2CCCN(C(=O)c3cnn(-c4ccccc4)c3-n3cccc3)C2)c1 (centres undefined)	0.96	-2
COc1cccc(NC(=O)CSc2nc(Nc3ccc4c(c3)OCO4)c3ccccc3n2)c1	1.1	0.4
Cc1ccc(N2CC(c3nc4ccccc4n3CC(C)C)CC2=O)cc1C (centres undefined)	0.89	-2.6

# Compound profiles, as listed above. Order of values: CBX7 inh	CBX7 inh z-score
# Record of COC(=O)c1ccccc1NC(=O)CCc1c(C)nc2c(-c3ccccc3)c(C)nn2c1C : 1.1	3.6
# Record of Cc1ccc(C)c(CN2C(=O)c3ccccc3S(=O)c3ccc(C(=O)NCCN4CCCC4)cc32)c1 (centres undefined) : 0.93	-1.1

# Next records follow.
Molecule	CBX7 inh	CBX7 inh z-score
OC(CN1CCOCC1)(c1ccc(Cl)cc1)C1CCCCC1 (centres undefined)	1	0.48
CC(C)CCNC(=O)C1CCN(S(=O)(=O)c2cnc[nH]2)CC1	1.1	2.1
Cc1ccc(Nc2ncc(C(=O)N(C)CCc3ccccn3)c3ccccc23)cc1Cl	1.2	3.4
COC(=O)c1ccc(-n2c(/C=C\c3ccccc3F)nc3ccccc3c2=O)cc1	1.2	4.6
COc1ccc(-c2nc(SCC(=O)Nc3ccc4c(c3)OCCO4)c(-c3ccccc3)[nH]2)cc1	0.73	-13
CC1(C)NC(=O)N(CC(O)COc2ccccc2Br)C1=O (centres undefined)	1	0.44
CCCn1c(CCCNC(=O)c2ccc(OC)c(OC)c2)nc2ccccc21	1.1	1
COc1cc2c(cc1OC)C(C)N(C(=O)c1ccc3c(=O)n4c(nc3c1)CCCCC4)CC2 (centres undefined)	0.79	-3.5
